From PubChem
RGS16-Gao: RGS16-Galphao interaction regulator (human); bead-based flow cytometry RGS16-Galphao binding, fluorescence; actives lie on both sides; AID 1441; 0.38% of 220,000 active; binding response (% of control), % at 10 µM; O15492+P09471;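 active = below 25% or above 175%, edge rows of some plates excepted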;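 note: Galphao activated by GDP with aluminum fluoride before binding; 100% = wells without compound and 0% = beads without RGS; some results beyond the cut were filed as inactive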
PKD1 inh: PKD1 (human) kinase inhibition. PKD1 kinase fluorescence polarization assay. 0.056% of 200,000 active. inhibition, %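 (about 10 µM by stock and volumes)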;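 active = inhibition of 50% or more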;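 note: controls were vehicle for no effect and a reference inhibitor for full effect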
Target sequence (Q15139 whole entry, looked up): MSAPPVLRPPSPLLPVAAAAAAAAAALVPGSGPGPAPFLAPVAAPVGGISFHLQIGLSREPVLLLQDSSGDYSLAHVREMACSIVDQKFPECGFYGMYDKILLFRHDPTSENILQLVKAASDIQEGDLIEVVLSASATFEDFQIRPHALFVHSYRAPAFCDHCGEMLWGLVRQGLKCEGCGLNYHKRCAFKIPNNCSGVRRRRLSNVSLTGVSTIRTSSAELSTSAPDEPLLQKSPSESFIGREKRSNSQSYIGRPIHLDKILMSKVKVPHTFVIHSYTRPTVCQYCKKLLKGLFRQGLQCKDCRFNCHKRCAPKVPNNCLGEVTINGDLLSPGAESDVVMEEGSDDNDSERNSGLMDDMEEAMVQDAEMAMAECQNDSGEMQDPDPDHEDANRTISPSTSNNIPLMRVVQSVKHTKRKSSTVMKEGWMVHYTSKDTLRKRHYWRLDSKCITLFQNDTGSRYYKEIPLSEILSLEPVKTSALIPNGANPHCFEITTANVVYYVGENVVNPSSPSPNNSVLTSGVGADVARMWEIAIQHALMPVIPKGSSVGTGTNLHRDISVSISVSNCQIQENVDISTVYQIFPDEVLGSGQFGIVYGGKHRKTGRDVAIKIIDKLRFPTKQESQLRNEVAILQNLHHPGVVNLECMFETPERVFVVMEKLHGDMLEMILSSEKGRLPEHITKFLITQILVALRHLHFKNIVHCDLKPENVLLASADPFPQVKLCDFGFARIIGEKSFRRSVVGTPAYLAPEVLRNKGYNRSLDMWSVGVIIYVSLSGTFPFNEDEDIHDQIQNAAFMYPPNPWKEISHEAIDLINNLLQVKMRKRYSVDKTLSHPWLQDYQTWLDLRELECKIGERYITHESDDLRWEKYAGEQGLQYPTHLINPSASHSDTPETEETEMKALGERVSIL
Insulin prom inh: TRM-6 insulin promoter activity inhibition. inhibition, % at 2 µM. TRM-6 cells (human fetal islet line), insulin promoter-eGFP reporter, imaging; reporter expression induced with tamoxifen. 0.9% of 130,000 active;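 active = inhibition above the mean plus 3 SD, with well images judged a real hit on visual review, cut at about 60% in these data, passing the limit was not always enough; inconclusive = inhibition over the cutoff but images rejected on review; inactive = inhibition not above the cutoff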
HSV augment: increases HSV replication in cells; maximum fold increase; HSV replication augmentation in cells, fold increase; 0.005% of 220,000 active; AID 1956;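 active = peak rise of 1.5-fold or more in the series; inconclusive = self-fluorescent or not available for retest; tested in PC3 cells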;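 note: first round at 10 µM; read as green reporter fluorescence; hits show the peak of a series up to 25 µM; 1 = signal of infected wells without compound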
GALR2 agonist: GALR2 (human) receptor agonism; 0.48% of 140,000 active; AID 803; activation, %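 (tested at 5 µM)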; O43603; GALR2-expressing cells, agonist activation read-out;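 active = above mean plus 3 SD of all compounds, about 5% in these data, not always enough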;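 note: 0% = vehicle buffer wells and 100% = reference agonist at full effect; tested in CHO reporter cells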
Insulin prom inh cell count: second read-out of Insulin prom inh, no call of its own (marks repeat the call); normalized cell count, %; measured here: cell count, toxicity; reference of the scale not given here;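 cells exposed to compound for 48 h; stained nuclei by imaging scaled within each plate; lower means fewer cells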
HSV augment primary fold: also measured in HSV augment; calls as there; fold increase; compound at 10 µM; measured here: primary screen fold increase 10 uM; tested in PC3 cells;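 GFP signal in the first replicate; 1 = infected wells without compound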
An asterisk follows results filed as active; i = inactive; ? = inconclusive; · = no result given.

SMILES	RGS16-Gao	PKD1 inh	Insulin prom inh	Insulin prom inh cell count	HSV augment	HSV augment primary fold	GALR2 agonist
COc1cc(OC)c2ccc(=O)oc2c1C(CC(=O)N1CCOCC1)c1ccc(N(C)C)cc1 (configuration not stated)	106	·	·	·	i	1	·
Cn1c(=O)c2c(nc(N3CCc4ccccc4C3)n2Cc2ccc(Br)cc2)n(C)c1=O	97	-6	-305	46	i	0.83	-0.1
c1cncc(-c2nnc(-c3cccs3)o2)c1	104	-10	·	·	i	0.73	-1.6
COc1ccc(S(=O)(=O)N2CCCC2C(=O)Nc2ccc(C)cc2)cc1 (configuration not stated)	102	-2	-39	87	i	0.84	-3.5
O=S1(=O)C[C@@H](O)[C@@H](Nc2ccc(Cl)cc2)C1	99	-4	-34	227	i	0.92	-4.6
CC(=O)c1cc(C#N)c(SCC(=O)Nc2nccs2)nc1C	108	0	·	·	i	0.86	·
Cc1ccc(-c2nnn(CC(=O)N(Cc3ccco3)C(C(=O)NC(C)(C)C)c3ccc(C)o3)n2)o1 (configuration not stated)	102	3	·	·	i	1.1	·
COC(CNC(=O)C(=O)NCC1OCCN1C(=O)c1ccc(Cl)cc1)OC (configuration not stated)	·	-16	38	125	i	1	-1.1
CCOC(=O)CC(=O)CSc1nc(-c2ccc3c(c2)OCO3)cc(C(F)(F)F)c1C#N	99	-12	-74	108	?	·	-0.9
CCOC(=O)c1nn(-c2ccc(C)cc2)c(C)c1C(C)=O	101	0	·	·	i	0.86	-2.6
CC(=O)c1ccc2c(c1)CC(C)C(=O)N2C (configuration not stated)	108	4	8	105	i	1	-1.5
CCn1c(O)c2ccc(C(=O)N=NC(=O)c3cccnc3)cc2c1O	101	8	17	106	i	0.83	-2.5
CSc1nncc(-c2ccc(F)c(F)c2)n1	112	3	14	116	i	0.9	-1.5
CC(NC(=O)C1CCC(CNS(=O)(=O)c2ccccc2)CC1)c1ccc2c(c1)OCCO2 (configuration not stated)	130	1	-27	155	i	0.95	·
CNc1nc2c(Cl)cc(Cl)cc2s1	104	·	·	·	i	0.92	·
O=C(Cc1cccs1)NCc1ccccc1F	-14	2	-21	152	i	1.1	-2.9
COC(=O)c1ccc(-n2cncn2)c([N+](=O)[O-])c1	102	-6	·	·	i	0.89	·
O=C(NC(=S)NCCC1=CCCCC1)c1ccco1	105	5	·	·	i	1	·
COc1ccc(OC)c2c(C)cc(N3CCN(C(=O)c4ccc(Cl)cc4)CC3)nc12	102	-1	-14	84	i	0.71	-0.6
O=C(Cn1c(COc2ccccc2)nc2ccccc21)Nc1cc(Cl)cc(Cl)c1	105	12	-11	58	i	0.78	1.9
COc1ccc(C(=O)NC(=S)N2CCNC(=O)C2)cc1Br	101	-4	·	·	i	1.1	·
O=c1cc(N2CCCCC2)c(-c2ccccc2)nn1Cc1cccc(Cl)c1	109	-3	-5	56	i	1	-1.8
CCCNS(=O)(=O)c1ccc(OCC(=O)Nc2ccc3c(c2)OCO3)cc1	118	4	·	·	i	0.96	·
O=C1NC(=O)C(Cc2ccccc2)(c2cccnc2)N1 (configuration not stated)	101	·	·	·	i	1.1	·
O=S1(=O)CC/C(=N\O)c2ccccc21	103	-11	21	101	i	0.8	-2.5
COc1cccc(CC2(CO)CCCN(CC3=Cc4cc(Cl)ccc4OC3)C2)c1 (configuration not stated)	101	-1	·	·	i	1	·
CC1(C(=O)NC(=S)NNC(=O)c2ccncc2)CCCCC1	103	4	-59	87	i	1.1	-0.6
Cc1ccc(Sc2nnc(-c3ccccc3)cc2C#N)cc1	103	8	-39	99	i	1.1	-2.2
CC(C)CNS(=O)(=O)c1ccc(CCC(=O)NCCC2=CCCCC2)cc1	101	-7	-57	65	i	1	·
O=C(Nc1nncs1)c1ccc(S(=O)(=O)c2ccccc2)cc1	94	-5	-24	102	i	1.1	-0.9
CCc1ccc(C(c2c(C)nn(-c3ccccc3)c2N)c2c(C)nn(-c3ccccc3)c2N)cc1	103	5	·	·	i	0.77	-1.1
O=C(O)CC(NC(=O)C12CC3CC(CC(C3)C1)C2)c1ccc(OC2CCCC2)cc1 (configuration not stated)	99	10	15	105	i	1	·
COc1cccc(/C=C/C(=O)OCC(=O)NCc2ccc(Cl)cc2)c1	102	-10	·	·	i	0.91	·
Cc1ccc(C2=NOC(C)(c3nnc(-c4ccc(Cl)cc4)o3)C2)cc1 (configuration not stated)	110	·	·	·	i	0.93	·
CCOC(=O)c1cnc(-n2nc(C)cc2C)nc1NCCO	104	-16	11	189	i	0.91	-2.3
CN(C)CCn1c(C(=O)O)cc2ccccc21	100	9	-6	104	i	0.85	-1.8
O=C(CCc1ccccc1)Nc1nc2c(F)cc(F)cc2s1	99	·	·	·	i	0.99	·
CCn1c2ccccc2c2cc(NC(=O)COC(=O)c3cc(S(=O)(=O)N4CCCCC4)ccc3Cl)ccc21	90	7	29	58	i	0.78	-0.2
CCOC(=O)C1CCN(CC(O)COCc2ccc3c(c2)OCO3)CC1 (configuration not stated)	102	-3	27	39	i	1	·
CC1=C(C(=O)Nc2cccc([N+](=O)[O-])c2)C2(CCC(C)CC2)OC1=O (configuration not stated)	101	-1	7	110	i	0.83	·
CCc1nnc(NC(=O)CN2C(=O)c3ccccc3C2=O)s1	142	-10	-87	138	i	0.92	-0.7
O=C(/C=C/c1cccc([N+](=O)[O-])c1)N1CCN(c2ccc(F)cc2)CC1	100	1	-27	163	i	0.83	-0.5
Cc1cc(C)n(-c2cc(N3CCN(C(=O)c4cccc(Br)c4)CC3)ccc2[N+](=O)[O-])n1	104	-1	20	138	i	1.1	-2.9
COc1ccc(C(=S)N2CCN(c3ccccc3C)CC2)cc1	111	·	·	·	i	0.98	·
CN(C)S(=O)(=O)c1cccc(C(=O)Nc2ccc(N3CCOCC3)cc2)c1	94	·	·	·	i	0.88	·
N#CCCN1CCN(C2=NC(=O)C(=C3CCCCC3)S2)CC1	98	-8	·	·	i	0.97	-1.6
O=C(Cn1cnc2scc(-c3cccc([N+](=O)[O-])c3)c2c1=O)NCc1ccco1	91	-2	·	·	i	0.94	·
Cc1ccc2c(c1)C(O)(CC(=O)c1ccc(C)s1)C(=O)N2 (configuration not stated)	96	-3	27	136	i	0.96	·
Cc1cc(C)nc(N/N=C2/CCCC/C2=C\c2ccccc2)n1	103	-4	-58	28	i	0.56	·
O=[N+]([O-])c1ccc(/C=N/N/C(=N/c2ccccn2)c2ccccn2)cc1	98	-8	49	106	i	0.92	-2.6
Cc1csc(=Nc2ccccc2)n1Cc1ccco1	102	-1	·	·	i	0.85	·
CCOc1ccccc1-n1cnc2cc(C(=O)NCc3ccco3)ccc21	89	0	33	115	i	0.97	-1.5
COc1ccc(C(=O)NC(=S)NNC(=O)Cc2cccs2)cc1	97	2	-17	94	i	0.92	-2.0
CNNC(=S)Nc1cccc(C(F)(F)F)c1	105	·	·	·	i	0.92	·
Nc1cc(N)nc(SCC(=O)N2CCCCC2)n1	111	-3	·	·	i	0.92	0.2
NC(=O)CCCSc1nc2ccccc2[nH]1	102	-4	·	·	i	0.98	·
CCn1c(-c2csc3ccccc23)n[nH]c1=S	106	4	17	119	i	0.87	-0.3
O=C(/C=C/c1ccccc1)c1c[nH]c2ccccc12	101	·	·	·	i	0.99	·
COc1ccccc1-c1nnc(NC(C)=O)s1	97	-6	·	·	i	0.87	0.2
CCOC(=O)c1c(NC(=O)CN2C(=O)NC3(CCCCCC3)C2=O)sc(C)c1-c1ccc(C)cc1	39	-3	31	153	·	·	-0.5

The results go on.
SMILES	RGS16-Gao	PKD1 inh	Insulin prom inh	Insulin prom inh cell count	HSV augment	HSV augment primary fold	GALR2 agonist
O=C(CN1CCN(c2ccccc2O)CC1)NC(=O)NCc1ccco1	102	-6	·	·	i	0.92	-1.3
CCOc1[nH]n(-c2ccccc2)c(=O)c1C=Nc1ccc(C(=O)OC)cc1	89	-7	-33	106	i	0.92	·
CCn1c(-c2ccccc2Cl)nn(CC(=O)Nc2cc(Cl)ccc2Cl)c1=S	100	1	-103	128	i	1	-1.6
CCC(C(=O)Nc1cccc(C(F)(F)F)c1)c1ccccc1 (configuration not stated)	112	10	-50	45	i	0.89	-0.9
CCOC(=O)c1cc(NC(=O)c2ccc(C)cc2)c(=O)oc1-c1ccccc1	99	0	-14	123	i	0.79	-1.9
CC1(CO)COC(c2ccccc2)=N1 (configuration not stated)	101	·	·	·	i	1.1	·
CC1CN(C(=O)CSc2nnc3c(Cl)cc(Cl)cn23)CC(C)O1 (configuration not stated)	106	-1	57	87	i	0.82	-2.2
Cc1cc(C(=O)CSc2nn3c(=O)c(C(C)(C)C)nnc3s2)c(C)n1-c1ccc(F)cc1	102	-2	-38	63	i	1.1	0.1
CC(=O)N1N=C(c2ccncc2)OC1(Cc1ccccc1)Cc1ccccc1	97	·	·	·	i	1.1	·
Cc1ccc(NC(=O)c2ccc(Cn3cc([N+](=O)[O-])cn3)cc2)c(C)c1	107	-3	-58	132	i	0.99	-0.4
C(=N\Nc1ncnc2nc[nH]c12)/c1cccs1	110	-4	33	89	i	0.9	·
COc1ccc(C2N(c3ccccc3)CCN2c2ccccc2)cc1O	106	-2	0	61	i	1	·
COc1ccc(C2C(C#N)=C(N)N(c3ccccc3)C3=C2C(=O)CCC3)cc1Cn1cc([N+](=O)[O-])cn1 (configuration not stated)	106	11	·	·	i	0.99	-2.0
O=C1N(c2ccccc2)C[C@@H]2C[C@@H](c3cc4ccccc4o3)N3CCC[C@@]123	91	2	·	·	i	0.74	·
O=c1oc2ccccc2nc1/C=C(\O)c1ccc(Br)cc1	104	·	·	·	i	0.96	·

An excerpt of these results, with two lines to a compound.
Values run as follows: RGS16-Gao, PKD1 inh, Insulin prom inh, Insulin prom inh cell count, HSV augment, HSV augment primary fold, GALR2 agonist
COc1ccc(S(=O)(=O)N2CCCC2C(=O)Nc2ccc(C)cc2)cc1 (configuration not stated)
 : 102, -2, -39, 87, i, 0.84, -3.5
O=S1(=O)C[C@@H](O)[C@@H](Nc2ccc(Cl)cc2)C1
 : 99, -4, -34, 227, i, 0.92, -4.6

Part of the list above, reformatted.
| molecule | RGS16-Gao | PKD1 inh | Insulin prom inh | Insulin prom inh cell count | HSV augment | HSV augment primary fold | GALR2 agonist |
| --- | --- | --- | --- | --- | --- | --- | --- |
| Cc1cc(C(=O)CSc2nn3c(=O)c(C(C)(C)C)nnc3s2)c(C)n1-c1ccc(F)cc1 | 102 | -2 | -38 | 63 | i | 1.1 | 0.1 |
| CC(=O)N1N=C(c2ccncc2)OC1(Cc1ccccc1)Cc1ccccc1 | 97 | · | · | · | i | 1.1 | · |
| Cc1ccc(NC(=O)c2ccc(Cn3cc([N+](=O)[O-])cn3)cc2)c(C)c1 | 107 | -3 | -58 | 132 | i | 0.99 | -0.4 |

Gathered by group: the entries above with a tert-butyl group.
SMILES	RGS16-Gao	PKD1 inh	Insulin prom inh	Insulin prom inh cell count	HSV augment	HSV augment primary fold	GALR2 agonist
Cc1ccc(-c2nnn(CC(=O)N(Cc3ccco3)C(C(=O)NC(C)(C)C)c3ccc(C)o3)n2)o1 (configuration not stated)	102	3	·	·	i	1.1	·
Cc1cc(C(=O)CSc2nn3c(=O)c(C(C)(C)C)nnc3s2)c(C)n1-c1ccc(F)cc1	102	-2	-38	63	i	1.1	0.1

The list goes on:
SMILES	RGS16-Gao	PKD1 inh	Insulin prom inh	Insulin prom inh cell count	HSV augment	HSV augment primary fold	GALR2 agonist
CCOCCCNC(=O)C(NC(=O)c1ccc(=O)[nH]c1)c1ccc(C)cc1 (configuration not stated)	101	-7	·	·	i	1.1	-2.6
O=C(N/N=C\c1ccc(Cl)cc1)C1=NOC2COC3(CCN(c4ccc([N+](=O)[O-])cc4)CC3)OCC12 (configuration not stated)	107	·	·	·	i	0.93	·
O=C(NNS(=O)(=O)c1ccc(F)cc1)C1CCN(S(=O)(=O)c2ccccc2)CC1	100	3	-35	116	i	1	·
N#CC(C(=O)NC1CC1)c1nc2ccccc2nc1N1CCCC1 (configuration not stated)	105	-5	25	88	i	0.93	2.9
O=C1CCN(S(=O)(=O)c2ccccc2)CCN1CCOCc1ccccc1	89	·	·	·	i	0.9	·
CCN1CCN(CC(O)COC(C)C)CC1 (configuration not stated)	104	-4	13	58	i	1	0.1
Cc1cccc(CN2CCN(CC(C)C)C(CCO)C2)n1 (configuration not stated)	92	·	·	·	i	1.1	·
CCOc1ccccc1C(C(=O)NC1CCCC1)N(Cc1ccco1)C(=O)CNC(=O)c1ccco1 (configuration not stated)	50	3	-200	94	i	1	0.0
NC(=S)n1[nH]c(-c2ccccc2)c(N=Nc2ccccc2C(=O)N2CCOCC2)c1=O	99	-5	·	·	i	1	·
CCCC[n+]1ccn(C2=C([O-])c3ccccc3C(=O)/C2=N\S(=O)(=O)c2ccc(Br)cc2)c1	102	-11	-100	100	i	2	-1.4
CC1=C(CC(=O)c2ccccc2)C(=O)c2ccccc2C1=O	104	-11	-68	88	·	·	-3.1
COc1ccc(CNc2nc3c(c(=O)n(Cc4ccc(Cl)cc4)c(=O)n3C)n2C)cc1	103	1	24	87	i	1.1	-1.4
